Bioassay records from PubChem.
KCNQ2 pot = potentiators of rat KCNQ2 potassium channel; CHO-K1 KCNQ2, FluxOR thallium flux fluorescence; hits give high values; O88943; B-score at 10 µM; 0.54% of 310,000 active; AID 2239;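 active means fluorescence ratio B-score at least 3 SD of library B-scores, with initial fluorescence B-score within 3 SD, cut at about 5.3 in these data; same plate scores as AID 2156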;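 further: B-score of peak minus minimum over baseline fluorescence ratio after K+ and Tl+ stimulus; positive B-score means potentiation of KCNQ2 with more thallium influx and brighter signal; only the inactives scoring about 0 or higher are listed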
Target sequence (O88943 whole entry, looked up): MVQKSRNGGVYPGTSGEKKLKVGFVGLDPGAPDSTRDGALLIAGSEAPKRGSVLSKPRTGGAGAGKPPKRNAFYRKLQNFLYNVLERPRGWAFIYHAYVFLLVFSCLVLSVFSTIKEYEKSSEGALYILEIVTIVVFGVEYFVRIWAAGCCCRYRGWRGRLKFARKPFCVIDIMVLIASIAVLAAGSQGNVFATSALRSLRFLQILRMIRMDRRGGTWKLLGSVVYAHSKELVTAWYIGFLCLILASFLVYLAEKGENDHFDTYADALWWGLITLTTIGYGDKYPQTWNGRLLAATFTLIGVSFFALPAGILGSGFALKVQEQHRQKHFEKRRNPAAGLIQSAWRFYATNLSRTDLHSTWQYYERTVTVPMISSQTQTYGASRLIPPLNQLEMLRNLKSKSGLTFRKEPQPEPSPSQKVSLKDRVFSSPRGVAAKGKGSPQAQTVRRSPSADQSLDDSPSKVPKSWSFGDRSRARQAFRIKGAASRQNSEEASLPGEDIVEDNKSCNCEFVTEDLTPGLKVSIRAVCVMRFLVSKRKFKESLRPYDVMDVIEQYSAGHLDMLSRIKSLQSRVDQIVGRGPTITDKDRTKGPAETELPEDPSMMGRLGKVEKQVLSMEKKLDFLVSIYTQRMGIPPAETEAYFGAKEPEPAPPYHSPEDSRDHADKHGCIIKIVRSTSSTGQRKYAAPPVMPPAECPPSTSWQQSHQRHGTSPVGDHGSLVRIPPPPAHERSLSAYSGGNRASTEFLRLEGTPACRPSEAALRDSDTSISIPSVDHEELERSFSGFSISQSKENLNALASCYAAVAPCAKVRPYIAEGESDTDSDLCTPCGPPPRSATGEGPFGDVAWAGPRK
KCNQ2 pot baseline = second read-out of KCNQ2 pot, no call of its own (marks repeat the call); B-score; compound at 10 µM; measured here: initial fluorescence intensity artifact check;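 brightness before thallium and not channel activity; 0 = typical well and far values either way flag optical interference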
Active calls of the source: *; & = joins results of further samples. This is a subset; the hit share may differ from the screen's.

SMILES	KCNQ2 pot	KCNQ2 pot baseline
COc1cc(NC(=O)CSc2nc3ccccc3cc2C)c(C(=O)O)cc1OC	0.59	0.81
CCOC(=O)NC(=O)c1cn(Nc2ccccc2)c(=O)[nH]c1=O	0.01	0.04
COCc1cc(C)nc(SCC(=O)NCc2ccco2)c1C#N	0.93	-1.13
O=C(Nc1ccccc1)Nc1cc(Cl)cc(Cl)c1	0.01	-0.98
C=CCN1CC(C(=O)N2CCC(Cc3ccc(Cl)cc3)(C(=O)OCC)CC2)CC1=O (stereo not given)	0.08	0.05
Cc1ccc(-c2nnc(SCC(=O)N/N=C/c3ccc(C)s3)n2-c2ccccc2)cc1	0.55	0.58
CCc1ccc(NC(=O)CS(=O)CC(=O)Nc2ccc(-n3cnnn3)c(C)c2)cc1 (stereo not given)	0.02	0.11
O=C(OCCN(C1=NS(=O)(=O)c2ccccc21)c1ccc(Cl)cc1)c1ccco1	1.11	-1.16
Cc1cccnc1NS(=O)(=O)c1cccc([N+](=O)[O-])c1	0.67	1.15
COc1ccc(/C=N/c2c(-c3ccc(OC)cc3)nc3n2CCS3)cc1	0.74	-1.2
COc1cccc(NC(=S)NCc2ccc(F)cc2)c1	0.85	-0.1
CCOc1ccc(-c2ccc(SC)nn2)cc1	1.45	-0.23
CCOC(=O)N1CCN(C(=O)NC23CC4CC(CC(C4)C2)C3)CC1	2.12	0.4
CCOC(=O)COc1ccc(C(c2c(C)[nH][nH]c2=O)c2c(C)[nH][nH]c2=O)cc1	0.54	-0.38
O=C(CC1CC2CCC1C2)NCCc1ccc(Cl)cc1 (stereo not given)	5.92*	0.6*

A different layout for part of the listing above:
canonical_smiles,KCNQ2 pot,KCNQ2 pot baseline
Cc1ccc(-c2nnc(SCC(=O)N/N=C/c3ccc(C)s3)n2-c2ccccc2)cc1,0.55,0.58
CCc1ccc(NC(=O)CS(=O)CC(=O)Nc2ccc(-n3cnnn3)c(C)c2)cc1 (stereo not given),0.02,0.11

Later entries
SMILES	KCNQ2 pot	KCNQ2 pot baseline
C[C@@H]1CCC[C@@]2(O[C@H](CCO)C[C@@H](O)[C@@H]2O)O1	1.31	0.46
CCOC(=O)NNC1CC(=O)N(c2ccccc2)C1=O (stereo not given)	0.03	0.01
Cc1cc2ncc(-c3ccccc3)nc2cc1C	0.95	-0.01
O=C(c1cnc2n(c1=O)CCS2)N1CCN(c2ccc(Cl)c(Cl)c2)CC1	0.44	-2.09
Cc1ccccc1OCC(=O)N/N=C/c1ccccn1	0.45	0
O=C(O)c1ccc(Cl)c(NC(=S)NC(=O)c2ccccc2[N+](=O)[O-])c1	0.77	-0.14
O=C(c1ccco1)N1CCCC(c2nc(-c3ccc(S(=O)(=O)NCc4ccccc4)cc3)no2)C1 (stereo not given)	0.13	-1.54
N#Cc1cc(-c2ccccc2)cn(Cc2c(Cl)cccc2Cl)c1=O	0.74	0.45
COc1cccc(C2C(C(N)=O)=C(C)Nc3nc(CCCO)nn32)c1 (stereo not given)	0.01	1.76
O=S(=O)(Nc1ccon1)c1ccc(Br)s1	0.05	1.16
CC1(c2ccccc2)NC(=O)N(CC(=O)N2CCOCC2)C1=O (stereo not given)	1.08	0.01
CC12CN(C(=O)c3ccco3)CC(c3ccccc3)(CN(C(=O)c3ccco3)C1)C2=O	0.08	-0.73
Nc1nonc1-n1nnc(C(=O)N/N=C/c2ccccc2Cl)c1-c1ccc2c(c1)OCO2	1.78	-0.83
C=CCN1C=C2C(=O)C(C)(OC(=O)C3CCCC3)C(=O)C(c3ccccc3)=C2C=C1CCCC(=O)OC (stereo not given)	0.01	-0.1
O=C(COc1cccc2c1CCNC2=O)Nc1cccc(F)c1	0.41	-2.29

Six entries already listed, ordered by count of non-hydrogen atoms, smallest number first.
SMILES	KCNQ2 pot	KCNQ2 pot baseline
O=S(=O)(Nc1ccon1)c1ccc(Br)s1	0.05	1.16
C[C@@H]1CCC[C@@]2(O[C@H](CCO)C[C@@H](O)[C@@H]2O)O1	1.31	0.46
CCOC(=O)NNC1CC(=O)N(c2ccccc2)C1=O (stereo not given)	0.03	0.01
CC1(c2ccccc2)NC(=O)N(CC(=O)N2CCOCC2)C1=O (stereo not given)	1.08	0.01
N#Cc1cc(-c2ccccc2)cn(Cc2c(Cl)cccc2Cl)c1=O	0.74	0.45
O=C(c1cnc2n(c1=O)CCS2)N1CCN(c2ccc(Cl)c(Cl)c2)CC1	0.44	-2.09

Additional records:
SMILES	KCNQ2 pot	KCNQ2 pot baseline
COc1cc(NC(=O)C2CC3CCC2C3)c(OC)cc1Cl (stereo not given)	0.51	1.15
Cc1cc(C)n(CC(=O)NN)n1	0.34	-0.02
CCCCNCc1cc(OCC)c(OCC)cc1Br	0.82	-0.02
COCCNC(=O)C1CC(=O)N(c2ccc(OC)cc2)C1c1ccc(OC)cc1 (stereo not given)	3.94	-0.04
CC(O)CSc1nc2c(c(=O)[nH]c(=O)n2C)n1Cc1ccccc1Cl (stereo not given)	0.92	0.23
COc1ccc(Cl)cc1NC(=S)NCCCN1CCCC1=O	0.57	0.25
CCOC(=O)c1cc2c(ccn2C)n1CC(=O)Nc1ccc(F)cc1	0.1	-0.22
CSc1sc(C(=O)NC(=O)NCc2ccncc2)c(C)c1-c1ccon1	2.04	0.79
Clc1ccc2nc(-c3ccc(Br)s3)cn2c1	0.39	1.66
COc1ccc(-c2ccc(C#N)c(OC)n2)cc1	2.34	-0.19
CC1Cc2ccccc2N1C(=O)CN1C(=O)CN(C)C(=O)c2ccccc21 (stereo not given)	0.01	-1.86
COCCn1c(C)cc(C(=O)COC(=O)c2ccc3ncsc3c2)c1C	0.34	-0.14
CCOC(=O)N1CCN(S(=O)(=O)c2ccc(C(=O)Nc3ccc(F)cc3F)cc2)CC1	0.63	0.83
O=C(c1ccc(C(=O)N2CCOCC2)nc1)N1CCOCC1	0.09	-0.76
NC(=O)C1CCN(C(=S)NC2CC3C=CC2C3)CC1 (stereo not given)	0.66	-0.03
COc1ccc(N2CCN(C(=O)c3ccc4ccccc4n3)CC2)cc1	1.77	0.08
COc1cccc(NC(=S)N2CCCN(Cc3ccc(F)cc3)C2)c1	0.02	3.16
Nc1ccccc1SCC(=O)Nc1nc(-c2ccccc2)cs1	0.02	-0.67
COc1cccc(/C=C(\C)C(=O)c2c(C)cc(C)[nH]c2=O)c1OC	0.2	-0.37
Cc1cc(C)c(CN2CCC(CO)(CCOc3ccccc3)CC2)cc1C	0.16	1.02
Cc1c(NC(=S)N2CCN(c3cccc(Cl)c3)CC2)c(=O)n(-c2ccccc2)n1C	2.1	-0.55
COc1ccc(S(=O)(=O)N2CCCCCC2)cc1C(=O)OCC(=O)NCC(C)C	0.98	-1.01
O=c1nc(/C=C/c2ccccc2C(F)(F)F)cc(C(F)(F)F)[nH]1	0.97	-1.09
CN1C(=O)[C@H]2[C@@H](/C=C/c3ccccc3)N3C(=O)CN(Cc4ccccc4)C(=O)[C@@]3(C)[C@H]2C1=O	0.07	0.05
CCOC(=O)c1[nH]cnc1C(=O)Nc1ccc([N+](=O)[O-])cc1	0.15	-0.37
Cc1cc(C)n2c(SCC(=O)N3CCN(S(=O)(=O)c4ccc(Cl)cc4)CC3)nnc2n1	0.66	-1.1
O=C(COC(=O)c1sc2cc(Cl)ccc2c1Cl)Nc1ncc(Cl)cc1Cl	1.69	-0.66
O=C(CSc1nc2c(sc3ccccc32)c(=O)n1CCCN1CCCC1)NCC1CCCO1 (stereo not given)	2.46	0.02
O=C(CNC(=O)c1ccccc1Br)N/N=C/c1cccnc1	1.54	-1.63
CCn1c(O)c(N=NC(=O)CNC(=O)c2ccccc2F)c2ccccc21	0.77	-0.01

Whole records as entered above.
CCOC(=O)c1[nH]cnc1C(=O)Nc1ccc([N+](=O)[O-])cc1 is listed with KCNQ2 pot: 0.15; KCNQ2 pot baseline: -0.37
COc1ccc(N2CCN(C(=O)c3ccc4ccccc4n3)CC2)cc1 is listed with KCNQ2 pot: 1.77; KCNQ2 pot baseline: 0.08

Following part.
SMILES	KCNQ2 pot	KCNQ2 pot baseline
C=CCc1ccccc1OCC(O)CN1CCN(Cc2ccc3c(c2)OCO3)CC1 (stereo not given)	1.44&0.19	-1.24&0.89
O=C(CN1CCOCC1)N/N=C/c1ccccc1	0.47	0.92
COCC(=O)Nc1nnc(SCC(=O)NCc2cccs2)s1	0.25	-0.83
CCOc1ccc(N=Nc2c(N)[nH][nH]c2=O)cc1	0.52	0.74
O=C(NCCc1ccc(Cl)cc1)C1CCN(C(=O)c2sccc2-n2cccc2)CC1	0.23	-0.61
COc1ccc(S(=O)(=O)N2CCCOC2CNC(=O)C(=O)NCCCn2ccnc2)cc1 (stereo not given)	0.23	3.02
CC(C)(C)Nc1scc(-c2ccccc2)[n+]1-c1ccccc1	1.71	-1.36
C/C(=C(/NC(=O)c1ccccc1)C(=O)O)c1ccco1	0.09	-0.9
CC(=O)Nc1nc(-c2cccs2)cs1	1	1.55
COc1ccc(S(=O)(=O)Nc2ccccc2-c2nc3ccccc3[nH]c2=O)cc1	2.12	-0.24
CNC(=S)NNC(=O)Cc1ccc(O)cc1	0.02	0.44
COc1cccc(C2(O)CC(C(F)(F)F)=NN2C(=O)c2ccccn2)c1 (stereo not given)	0.06	0.91
COc1ccc(Nc2nc(C(=O)N(CCO)Cc3ccccc3)cs2)cc1	1.94	-2.34
CC1=C2C(=O)OC(c3ccoc3)C2(C)CCC1 (stereo not given)	0.84	0.05
COC(=O)C1(C)NC(c2ccc(O)cc2)C2C(=O)N(c3ccc(F)cc3)C(=O)C21 (stereo not given)	1.15	-0.06
CCCC(=O)Nc1ccc(N2CCN(S(C)(=O)=O)CC2)cc1	1.73	-0.37
CCCN(CCC)CCCNS(=O)(=O)c1cc(Br)cc2c1N(C(C)=O)CC2	1.07	-0.99
COc1ccc(OCC(O)CN2CCCCCC2)cc1 (stereo not given)	0.46	-0.64
COc1ccc(Br)cc1CN1CCN(C(=O)c2cccc(OC)c2OC)CC1	0.15	0.76
O=C1COc2ccc(C(=O)COC(=O)c3cccnc3Cl)cc2N1	0.03	-0.96
Cc1ccccc1NC(=O)Cc1nc(CSc2nnc(C3CCCCC3)n2N)cs1	0.18	0.29
CCCC(=O)N(C1CC(C)C(C#N)(C#N)C1(C#N)C#N)N(C)C (stereo not given)	11.2*	0.06*
COc1ccc(NC(=O)CSc2nc(-c3ccncc3)nn2CC(=O)N2CCCC2)cc1	0.54	-0.41
CCCCOc1ccc(-c2nnc(-c3ccco3)o2)cc1	1.1	-2
O=C(NCC1CCCN(Cc2ccc3c(c2)OCCO3)C1)c1ccc2c(c1)OCO2 (stereo not given)	0.77	-0.08
Cc1[nH]n(-c2ccc([N+](=O)[O-])cc2)c(=O)c1C=NCCN1CCN(C(=O)C(C)C)CC1	0.05	2.97
CCN(CC)C(=O)CSc1nnc(COc2ccc(OC)cc2)n1N	0.56	-0.14
CCC1(C)Cc2c(sc3c2c2ncnn2c2nnc(SCC(=O)NCc4ccco4)n32)CO1 (stereo not given)	1.02	-0.7
O=C(Nc1ncc2c(n1)-c1ccccc1CC2)c1ccc(F)cc1	4.45	2.1
CCOC(=O)C(=Cc1cc(=O)c(OC)co1)C(=O)OCC	2.88	-0.6
COc1cccc(-c2c3c([nH]c(=O)c2C#N)CCc2cc(OC)ccc2-3)c1	1.38	0.36
COc1ccc(NC2=C(NCCO)C(=O)c3ccccc3C2=O)cc1	1.47	0.32
COc1ccc(C(=O)NC(=S)N2CCOCC2)cc1[N+](=O)[O-]	0.67	-1.53
CCC(=O)N/C=C/n1cnc2cc(C(F)(F)F)ccc21	0.89	-2.33
CN(C)S(=O)(=O)N1CCN(C(=O)N2CCCCCC2)CC1	0.12	0.1
COc1cccc(Nc2nc(N)c([N+](=O)[O-])c(NCc3ccccc3)n2)c1	0.21	0.47
CCOc1cccc(C2/C(=C(/O)c3ccc4c(c3)CC(C)O4)C(=O)C(=O)N2Cc2cccnc2)c1 (stereo not given)	0.2	-1.28
COc1ccc(NC(=O)CCc2nc3ccccc3s2)c(OC)c1	2.82	-1.74
CC(/C=N/Nc1ncc(C)c(=O)[nH]1)=C\c1ccccc1	0.98	0
CCOC(=O)C(C)n1cnc2c(nnn2Cc2ccc(Cl)cc2)c1=O (stereo not given)	1.04	-0.71
COCCNC(=O)C(=O)N/N=C(\C)CC(=O)Nc1cccc(C(F)(F)F)c1	2.81	-1.35
OCCN=C(c1ccccc1)C12CN3CN(CN(C3)C1)C2	1.53	-0.74
COc1ccc(NC(=O)c2cccc(C(=O)Nc3ccc(OC)cc3)n2)cc1	0.11	-1.3
CCCCOc1ccc(C(=O)NCC(=O)NCCOc2ccccc2)cc1	0.13	0
COc1ccccc1-n1c(C)nc2cc(C(=O)O)ccc21	0.94	-1.82
c1ccc(-n2cnc3ccccc32)cc1	0.33	-0.38
COc1cccc(C(=O)c2c[nH]c(C(=O)NCCCN3CCOCC3)c2)c1	1.41	-0.26
O=C(CSc1ncnc2c1oc1ccccc12)N1CCN(c2ccccc2)CC1	0.31	0.84
O=C(NCCSCc1ccco1)Nc1ccccc1	1.22	0.63
N=c1n(CCc2ccccc2)c2ccccc2n1Cc1ccccc1F	1.28	0.63
CC(=O)Nc1c(C)nn(-c2ccc([N+](=O)[O-])cc2)c1C	0.25	0.29
COc1ccc(C2CC(c3ccc([N+](=O)[O-])cc3)=NN2C(=O)c2ccccc2)cc1OC (stereo not given)	0.05	1.12
Cc1cc(C)n(C(=O)C23CC4CC(CC(C4)C2)C3)n1	0.01	0.43
CCC(NC(=O)c1ccccc1NC(=O)c1ccccc1)C(=O)OC (stereo not given)	0.03	-2.01
CCOc1ccc(C2CC(c3cccc(C)c3)n3nc(N)nc3N2)cc1 (stereo not given)	1.08	0.29
COC(=O)C1=C(C)N(C)C(C)=C(C(=O)OC)C1c1ccsc1	0.01	-0.33
Cc1ccc(NCN2C(=O)C3C4CCC(C4)C3C2=O)cc1 (stereo not given)	6.19*	-0.1*
